Screening results: PubChem BioAssay, National Center for Advancing Translational Sciences (NCATS)
NPR1 antag: blocks ANP-stimulated signaling of human Npr1 receptor; HEK293 hNpr1 GloSensor cGMP, ANP-stimulated luminescence; P16066; Potency, µM (doses to about 46.3 µM), without a hit: at the top dose activity change, negative = inhibition, actives largely listed as inhibitors; 76,000 tested, 1.6% active; active = well fitted inhibition curve with a large enough effect; inconclusive = small, poorly fitted or top-dose-only effect; inactive = no such curve, though single readings can be large or run the other way;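 note: nearly all actives have a fitted effect of over 60% in size; nearly all hits also lower the signal before the agonist is added; a reference antagonist and vehicle were the controls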
Target sequence (P16066 whole entry, looked up): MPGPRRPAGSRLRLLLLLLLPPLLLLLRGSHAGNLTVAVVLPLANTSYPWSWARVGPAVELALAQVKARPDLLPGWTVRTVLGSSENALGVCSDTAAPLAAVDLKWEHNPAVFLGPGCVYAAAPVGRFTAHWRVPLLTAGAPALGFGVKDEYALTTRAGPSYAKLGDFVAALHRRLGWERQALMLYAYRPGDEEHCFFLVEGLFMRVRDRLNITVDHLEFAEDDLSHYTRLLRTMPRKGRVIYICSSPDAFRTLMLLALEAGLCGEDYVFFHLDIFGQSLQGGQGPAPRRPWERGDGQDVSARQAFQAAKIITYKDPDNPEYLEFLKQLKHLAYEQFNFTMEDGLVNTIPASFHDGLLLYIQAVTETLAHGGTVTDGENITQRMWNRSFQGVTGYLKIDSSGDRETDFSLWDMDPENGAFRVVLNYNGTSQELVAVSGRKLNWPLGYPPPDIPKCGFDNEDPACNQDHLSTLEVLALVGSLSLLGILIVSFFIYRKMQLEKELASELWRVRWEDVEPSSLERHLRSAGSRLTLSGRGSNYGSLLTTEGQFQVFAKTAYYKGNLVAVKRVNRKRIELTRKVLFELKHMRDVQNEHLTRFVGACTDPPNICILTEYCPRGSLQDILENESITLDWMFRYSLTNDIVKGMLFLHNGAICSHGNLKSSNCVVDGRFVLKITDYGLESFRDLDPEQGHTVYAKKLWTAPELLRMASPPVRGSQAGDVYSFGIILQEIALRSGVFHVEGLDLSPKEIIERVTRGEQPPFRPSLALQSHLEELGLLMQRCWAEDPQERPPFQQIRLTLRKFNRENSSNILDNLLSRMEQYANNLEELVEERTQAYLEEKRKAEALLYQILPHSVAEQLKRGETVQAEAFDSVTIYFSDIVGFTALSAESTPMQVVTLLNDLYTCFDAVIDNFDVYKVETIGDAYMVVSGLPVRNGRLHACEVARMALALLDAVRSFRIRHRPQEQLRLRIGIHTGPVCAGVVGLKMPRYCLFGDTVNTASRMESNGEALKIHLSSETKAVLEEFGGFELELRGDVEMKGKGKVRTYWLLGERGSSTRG
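HEK293 cells stably expressing human Npr1 and cGMP GloSensor pGS-40F, loaded 2 h with 2% GloSensor reagent, given compound 30 min at room temperature. Luminescence read before and 20 min after 0.1 nM hNppA.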
The depositor's hits bear a star; u = inconclusive; [ ] = another dose, or the depositor's remark. % is set by controls: 0 for no effect and ±100 for the full control effect; potency is the fitted concentration of half-maximal effect. A portion of the library, so the mix of outcomes need not match the whole.

SMILES	NPR1 antag
Cc1nn(CC(=O)N2CC[C@H](CO)[C@H](O)C2)c(=O)c2ccccc12	1%
CC(=O)NCC(=O)N1CCCC(n2cc(-c3nc(-c4ccccc4)no3)nn2)C1 (stereo unspecified)	-10%
Oc1cc(-c2cccc(Cl)c2)cc2c1OCCN(c1cc(C3CC3)ncn1)C2	-22%
COc1cc(Cl)ccc1C(=O)N1CC(C(=O)N(C)C)C2(CCOCC2)C1 (stereo unspecified)	-12%
OC[C@@H]1CN(CC2CC2)C[C@H]1c1nc(-c2cccnc2)no1	1%
CC(C(=O)NCCc1ccccc1)C1CCOCC1 (stereo unspecified)	-3%
CCn1nc(C)c(CN2CCC3(CC2)CN(c2ccncn2)CC3CO)c1C (stereo unspecified)	1%
COc1ccc(NC(=O)Cn2ccn3nc(-c4ccc(F)cc4)c(CO)c3c2=O)cc1	-2%
Cc1ccc(F)cc1S(=O)(=O)N1CCN(C2CCN(CCC(C)C)C2=O)CC1 (stereo unspecified)	-2%
COCCn1ncc(N2CCC(NC(=O)CCC(C)C)CC2)cc1=O	2%
Cc1nc(CCNc2nc(-c3ccccn3)nc3c2c(C)nn3C)no1	-1%
CCn1c(C2CCN(C(=O)c3cc(F)cc(F)c3)CC2)nn(C)c1=O	-7%
Cn1ncc(N2CCCC(CC(=O)NC3CCN(Cc4ccccc4)CC3)C2)cc1=O (stereo unspecified)	-3%
CCO[C@H]1CN(C(=O)CCSCc2ccc(F)cc2)C[C@@H]1O	9%
O=C(NCc1ccnc2[nH]ccc12)c1ccccc1Cl	5%[70.6 µM]
O=C(c1cccc([N+](=O)[O-])c1)N1CCc2c(c3ccccc3n2CC2CC2)C1	-13%
Cc1ccc(C(=O)N2CCC3(C2)NC(=O)c2ccccc2CO3)cc1 (stereo unspecified)	u
CCN1c2cc(C(=O)Nc3ccc(C(N)=O)cc3)ccc2C(=O)N2CCCCC21 (stereo unspecified)	19%
CCOC(=O)N1CCC(N[C@@H]2CC[C@@H]2NC(=O)c2ccccn2)CC1	2%
CC[C@H]1CN(C(=O)Nc2cccc(C(F)(F)F)c2)CC[C@H]1CC(=O)NCc1ccco1	1%
O=C(O)Cn1ccc2cc(OCc3cccc(-c4ccc(F)cc4F)c3)cnc21	4%[70.6 µM]
O=C(NC(c1ccccc1)c1ccccc1)c1cnc2c(c1)N(C(=O)Cc1ccc(O)cc1)CCC2	-8%
C[C@@H](NC(=O)Nc1ccccc1)c1onc(-c2ccc(F)cc2)c1C(=O)O	5%[70.6 µM]
Cc1ccc(C)c(S(=O)(=O)N2CCCC(Cn3c(C)nc4cccnc43)C2)c1 (stereo unspecified)	u
Cc1ccc(C2Cn3nnc(-c4noc(-c5cc(F)ccc5Cl)n4)c3CO2)cc1 (stereo unspecified)	-12%
Cn1cc(C(=O)N2CCC(F)(c3nc(-c4ccncc4)no3)CC2)cn1	-21%
Cc1csc(Nc2ccc3c(n2)CN(CCOc2ccccc2)C(=O)CO3)n1	-3%[70.6 µM]
O=C(NCCN1CCOCC1)C1c2ccccc2CC(=O)N1Cc1ccccc1 (stereo unspecified)	3%
CN(Cc1cccn1C)C(=O)Nc1ccccc1	2%[70.6 µM]
Cc1cccc(OCC(=O)N2CCCC(n3cc(-c4noc(C)n4)nn3)C2)c1 (stereo unspecified)	2%
Cc1c(C(=O)N2CCn3nc(C(O)CO)cc3C2)sc2ccccc12 (stereo unspecified)	1%
CN(CCc1ccccn1)C(=O)c1cn(Cc2cccc(C(F)(F)F)c2)nn1	3%
COc1ccc(CNC(=O)N[C@@H]2CN(c3ncccn3)C[C@H]2CN(C)C)cc1	3%
COc1cc(OC)c(C(=O)N2CCCn3nc(C(=O)O)cc3C2)cc1OC	-2%
O=C(C[C@@H]1C[C@H]2O[C@H](CNC3CCC3)[C@@H](O)[C@H]2O1)N1CCOCC1	10%[70.6 µM]
O=C(NCCn1cccc1-c1nc(-c2ccc3c(c2)OCO3)no1)c1cccc(Cl)c1	-12%
O=C1Nc2ccc(-c3ccsc3)cc2C(=O)N2C[C@@H](NS(=O)(=O)c3ccc(F)cc3)C[C@@H]12	4%
Cc1cnc(CC2CCN(S(=O)(=O)c3cccc(F)c3)C2)n1C(C)C (stereo unspecified)	0%
COc1cccc(CCC(=O)N2CCCN(c3cc(-c4ccc(Cl)cc4)[nH]n3)CC2)c1	u
CN1CCCCCC(O)c2cc(C(=O)N3CCCCCC3)ccc21 (stereo unspecified)	-14%
COc1ccc(-n2ccnc2CN(C)Cc2cc(C(C)C)on2)cc1	-1%
COc1cc(C)c(-c2nc(Cn3cncn3)c(C)o2)cc1C	1%
COc1ccc(F)c(CN2CCCC3(CCN(C(=O)C4CCCC4)C3)C2)c1 (stereo unspecified)	-11%
CC(C)NC(=O)C1COC2(CCN(C(=O)C(C)(C)C)CC2)N1C(=O)c1ccc(F)cc1 (stereo unspecified)	5%
COc1ccc(-c2noc(-c3cccn3CC(=O)Nc3ccc4c(c3)CCC4)n2)cc1F	-5%
CCCNC(=O)N1CC(Oc2ccccc2-c2nc(CCOC)no2)C1	1%
CCC1Oc2ccc(NC(=O)c3ccccc3Cl)cc2CN(Cc2ccccc2F)C1=O (stereo unspecified)	-12%
O=C(NCc1cnn(Cc2ccccc2)c1)c1ccc2oc(-c3cccc(F)c3)nc2c1	-16%
COc1cc(OC)cc(C(=O)N2CCC(n3cc(-c4nc(C)no4)nn3)C2)c1 (stereo unspecified)	-2%
COCC(=O)N1CCC(C(=O)NCC2(c3ccccc3)CCCCC2)CC1	4%
COc1ccccc1C(=O)N1CCCn2nc(C)c(-c3ccccc3N3CCCC3)c21	-11%[70.6 µM]
O=C(Cc1ccc(Cl)cc1)N1CCC(n2cc(-c3nc(-c4ccccc4)no3)nn2)C1 (stereo unspecified)	u
O=C(Cc1c[nH]c2ccccc12)N1CCC(Cc2nncn2-c2ccccc2)CC1	0%
CCC(NCc1c(C(=O)N2CCCCCC2)nc2cc(C)ccn12)c1ccc(C)cc1 (stereo unspecified)	-7%
NC(=O)c1cc[nH]c1C1CCCN(C(=O)CCCc2nc3ccccc3s2)C1 (stereo unspecified)	-8%
O=C(NC1CCCN(c2cc(-c3ccc(Cl)cc3)[nH]n2)C1)c1ccccn1 (stereo unspecified)	-2%
COc1cncc(-c2cc(C(=O)NCc3cccnc3)c3c(c2)N(C)CCO3)c1	3%[70.6 µM]
CCCNC(=O)C1CC(=O)N(c2n[nH]c3cccc(F)c23)C1 (stereo unspecified)	5%
Cc1nnc2ccc(NCc3ccc(F)cc3)nn12	u
CCC(C)NC(=O)N1CCC(CCOC)(NS(C)(=O)=O)CC1 (stereo unspecified)	10%

Continued; it opens with the 5 that closed the last part.
SMILES	NPR1 antag
O=C(NC1CCCN(c2cc(-c3ccc(Cl)cc3)[nH]n2)C1)c1ccccn1 (stereo unspecified)	-2%
COc1cncc(-c2cc(C(=O)NCc3cccnc3)c3c(c2)N(C)CCO3)c1	3%[70.6 µM]
CCCNC(=O)C1CC(=O)N(c2n[nH]c3cccc(F)c23)C1 (stereo unspecified)	5%
Cc1nnc2ccc(NCc3ccc(F)cc3)nn12	u
CCC(C)NC(=O)N1CCC(CCOC)(NS(C)(=O)=O)CC1 (stereo unspecified)	10%
COc1cccc(C(=O)NCc2nnc3cc(-c4nc(C)no4)ccn23)c1	2%
CC(O)c1cc2n(n1)CCCN(CC(=O)N1CCOc3ccccc31)C2 (stereo unspecified)	6%
CN1c2cc(C(=O)NCc3ccc(F)cc3Cl)ccc2C(=O)N2CCCCC21 (stereo unspecified)	1%
CC(C)CS(=O)(=O)Nc1ccc([C@H]2OCC(=O)N(C(C)C)[C@@H]2CO)cc1	-1%[70.6 µM]
CCN(C1CCOCC1)C1CN(C(=O)C2CC2)C1	0%
Cc1cn2nc(C(=O)NCCc3cccs3)cc2c(N2CCCC2)n1	-1%
CCC(=O)N(C1CCOCC1)C1CCN(Cc2cc(OC)cc(OC)c2)CC1	-1%
Cc1cnc(C(=O)NC2C[C@H]3CC[C@@H](C2)N3C(=O)COc2ccc(Cl)cc2C)cn1 (stereo partly specified)	-8%
CC(C)C[C@@H](NC(=O)[C@@H]1C[C@@H](NS(=O)(=O)c2cn(C)cn2)CCN1C(=O)COCC(=O)O)C(N)=O	-4%
CCCNC(=O)C1COC2(CCN(C(=O)c3ccc(F)cc3)CC2)N1C(=O)c1ccccc1 (stereo unspecified)	1%
O=C(Cc1ccccc1Cl)N1CCC[C@H]1c1nc(-c2ccc(F)cc2)no1	-20%
COc1ccc(-c2ccnc3ncnn23)c(F)c1	-2%
O=C(c1ccccc1F)N1CCC2(C1)C(=NC1CCCC1)NC(=O)N2c1cccnc1 (stereo unspecified)	17%
CN1CC(c2ccccc2)CC2(CCN(C(=O)c3ccccc3)CC2)C1 (stereo unspecified)	7%
CCCCCNC(=O)CCN(CC)C(=O)c1cc(C)oc1C	-15%
CCS(=O)(=O)Nc1ccc(C)n(CC(=O)N2CCN(CC(C)C)CC2)c1=O	1%
Cc1cc(=O)n(CC(=O)Nc2cc(F)ccc2F)c(-c2ccc(F)cc2)n1	-17%
Cc1nn(-c2ccc(C(F)(F)F)cc2)c(C)c1[C@@H]1C=C[C@@H](NC(=O)CC(C)(C)CC(=O)O)C1	1%
CCOc1ccccc1CN1CCC2(CCN(C(=O)c3ccccc3Cl)CC2)Oc2ccccc21	0%
COC(=O)[C@@H]1Cc2ncn(Cc3ccc(OC)cc3)c2CN1C(=O)c1ccc(F)cc1	-6%[70.6 µM]
O=C(CC1CCCN(c2cnn(CC3CC3)c(=O)c2)C1)NCCN1CCCCC1 (stereo unspecified)	-4%
Cc1cnc(C2CCOCC2)n1C1CCN(C(=O)NCCc2ccccc2)CC1	0%
CN(CCCn1cccn1)C(=O)C1C2C(=O)N(c3ccc(F)cc3)C[C@@]23C=C[C@@H]1O3 (stereo partly specified)	0%
CCc1[nH]c2ccc(CNC(=O)C3CC(=O)Nc4ccccc43)cc2c1C (stereo unspecified)	0%
CCNC(=O)c1cccnc1OC1CCN(C(=O)c2ccnn2C)C1 (stereo unspecified)	1%
CN(Cc1ccccc1)Cc1cc(CC2(NCc3ccccc3O)COC2)no1	-3%[70.6 µM]
CC(C)CCN1C[C@@H]2C(=O)N(CCc3ccccc3)C(=O)[C@@H]2C1	-2%
CCn1cc(S(=O)(=O)N2CCC3(CC2)CC(OC)CCO3)cn1 (stereo unspecified)	0%
COC(=O)CNC(=O)C1CN(c2ccc(F)cc2)C(=O)N1 (stereo unspecified)	-3%[70.6 µM]
CCCCS(=O)(=O)N1CC(F)(F)C[C@H]1c1nnc(C)o1	-1%
c1ccc(CN2C[C@@H]3CC[C@H](C2)N(Cc2ccc4nsnc4c2)C3)nc1	-1%
CCn1ccc(C(=O)N2C[C@@H](COC)[C@H](c3nc(C4CC4)no3)C2)n1	-1%
COc1ccc(C(=O)Nc2ccc([C@H]3OCC(=O)N(Cc4cccnc4)[C@@H]3CO)cc2)cc1	-5%
COCCCNC(=O)CCN(CCC(C)C)C(=O)c1cc(C)oc1C	-3%
Cn1c(=O)cc(C(=O)NC2CCCc3c2[nH]c2c(Cl)cccc32)c2ccccc21 (stereo unspecified)	0%
O=C(c1ncccc1F)N1C[C@@H](COCC2CC2)[C@H](c2ccncc2)C1	2%
COc1ccc(NC(=O)CN2C(=O)NC3(CCOCC3)C2=O)c(OC)c1	4%
Cc1ccc(NC(=O)N[C@H](Cc2ccccc2)C(=O)N2CCOCCNC(=O)CC2)cc1C	-4%
O=C(Nc1ccccc1)NC1CCN(c2nc3ncccc3o2)CC1	1%[70.6 µM]
c1cc(N2CCOCC2)ncc1-c1noc([C@@H]2CCCN2)n1	6%[70.6 µM]

Some of these compounds in order of the NPR1 antag value, high to low.
SMILES	NPR1 antag
CCc1[nH]c2ccc(CNC(=O)C3CC(=O)Nc4ccccc43)cc2c1C (stereo unspecified)	0%
CCCCS(=O)(=O)N1CC(F)(F)C[C@H]1c1nnc(C)o1	-1%
CC(C)CCN1C[C@@H]2C(=O)N(CCc3ccccc3)C(=O)[C@@H]2C1	-2%

Further entries.
SMILES	NPR1 antag
CNC(=O)[C@@H]1C[C@H](Oc2ccccc2)CN1S(=O)(=O)Cc1ccccc1F	2%
COc1cc(F)ccc1-c1ccnc2nc(-c3cccs3)nn12	3%
COc1ccc(C)cc1NC(=O)Cn1c(-c2ccc(Cl)cc2)nc(C)cc1=O	-3%
COc1ccccc1C(=O)N1CCC(CC(=O)NCc2ccccc2)C1 (stereo unspecified)	0%
Cc1ccccc1CN1Cc2nc(-c3cccc(C(N)=O)c3)ccc2OCC1=O	-14%[70.6 µM]
Cc1ccc(C2Cn3nnc(C(=O)N4CCC(C(=O)NCc5ccc(F)cc5F)CC4)c3CO2)cc1 (stereo unspecified)	-2%
COc1cccc(CC(=O)N2CCC(c3n[nH]c(=O)n3Cc3ccc(F)cc3)CC2)c1	1%

Part of the list above in order of length of the SMILES, high to low:
SMILES	NPR1 antag
CC(C)C[C@@H](NC(=O)[C@@H]1C[C@@H](NS(=O)(=O)c2cn(C)cn2)CCN1C(=O)COCC(=O)O)C(N)=O	-4%
Cc1nn(-c2ccc(C(F)(F)F)cc2)c(C)c1[C@@H]1C=C[C@@H](NC(=O)CC(C)(C)CC(=O)O)C1	1%
O=C(NC(c1ccccc1)c1ccccc1)c1cnc2c(c1)N(C(=O)Cc1ccc(O)cc1)CCC2	-8%
O=C(c1cccc([N+](=O)[O-])c1)N1CCc2c(c3ccccc3n2CC2CC2)C1	-13%
COc1cc(OC)c(C(=O)N2CCCn3nc(C(=O)O)cc3C2)cc1OC	-2%
COCCn1ncc(N2CCC(NC(=O)CCC(C)C)CC2)cc1=O	2%
CN(Cc1cccn1C)C(=O)Nc1ccccc1	2%[70.6 µM]
